Source: PubChem
ID4 SMM = binders of human ID4 protein, primary screen, biochemical, small molecule microarray, single point; DNA-binding protein inhibitor ID-4 (Homo sapiens), P47928; Flag-ID4 binding, fluorescence F/B; calls only; hit rate 1.2% among 31,000;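 active means spot signal over background at p below 0.07 in all four prints; compounds were printed on slides so no solution concentration is given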;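 further: a binder raises fluorescence above local background on the spot; about 2 pmol printed per array spot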
Target sequence (P47928 whole entry, looked up): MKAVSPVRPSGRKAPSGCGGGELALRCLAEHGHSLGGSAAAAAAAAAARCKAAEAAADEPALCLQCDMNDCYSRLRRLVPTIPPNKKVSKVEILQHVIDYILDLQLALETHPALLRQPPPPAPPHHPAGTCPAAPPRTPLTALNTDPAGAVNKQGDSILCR
c-Myc SMM = binders of human c-Myc, primary screen, biochemical, small molecule microarray, anti-His fluorescence | Myc proto-oncogene protein (Homo sapiens), P01106 | His-c-Myc binding | calls only | hit rate 1.5% among 17,000;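 active means spot fluorescence over background with P-value below 7% in all four replicate spots, showing protein binding; compounds were printed on slides so no solution concentration is given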;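 further: score is binary with 100 for all four spots passing and 0 otherwise; about 2 pmol printed per array spot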
Target sequence (P01106 whole entry, looked up): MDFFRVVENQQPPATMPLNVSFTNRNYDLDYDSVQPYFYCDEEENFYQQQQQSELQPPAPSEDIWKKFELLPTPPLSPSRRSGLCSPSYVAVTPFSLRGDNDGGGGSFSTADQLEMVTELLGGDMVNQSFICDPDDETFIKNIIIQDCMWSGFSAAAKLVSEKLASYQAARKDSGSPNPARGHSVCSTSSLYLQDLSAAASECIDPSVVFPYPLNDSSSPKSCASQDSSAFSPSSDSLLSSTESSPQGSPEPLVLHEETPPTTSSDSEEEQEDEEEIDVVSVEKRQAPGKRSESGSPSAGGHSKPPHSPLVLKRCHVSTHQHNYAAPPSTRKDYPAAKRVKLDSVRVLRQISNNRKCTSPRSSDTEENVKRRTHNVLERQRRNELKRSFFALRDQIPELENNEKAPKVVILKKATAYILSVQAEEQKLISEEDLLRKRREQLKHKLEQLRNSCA
STAT3 binder = STAT3 binders, primary screen, biochemical, small molecule microarray, single point, set 2. His-STAT3 binding, anti-His fluorescence. calls only. hit rate 0.2% among 17,000. AID 624138, 2012;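 active means compounds whose four printed spots each show fluorescence over background unusually high for their array block, chance value under 7%; compounds were printed on slides so no solution concentration is given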;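 further: about 2 pmol printed per array spot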
p53 mut binder = binders of human mutant p53, primary screen, biochemical, small molecule microarray, anti-GST fluorescence; mutant tumor protein p53 (GST-tagged), Homo sapiens; AID 624136, 2012; small molecule microarray binding; calls only; hit rate 0.4% among 17,000;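 active means compounds whose four printed spots each glow above background more than chance allows, each with a p-value under 7%; compounds were printed on slides so no solution concentration is given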;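 further: about 2 pmol printed per array spot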
Calls only; i = inactive; nt = no result given; + = active, no number. This is a subset; rates above refer to the full screens.

SMILES | ID4 SMM | c-Myc SMM | STAT3 binder | p53 mut binder
Cc1noc(C)c1NC(=O)N(C)C[C@H]1OCCCC[C@H](C)Oc2ccc(NS(=O)(=O)c3cn(C)cn3)cc2C(=O)N([C@@H](C)CO)C[C@@H]1C | i | i | i | i
COc1c(O)cc2oc(-c3ccc(O)cc3)cc(=O)c2c1O | nt | i | i | i
COc1cc2cc(Oc3ccc4ccc(=O)oc4c3)c(=O)oc2cc1OC1OC(COC(=O)CC(C)(O)CC(=O)O)C(O)C(O)C1O (stereo unspecified) | i | i | i | i
c1coc(CNc2ncnc3c2sc2nc(N4CCOCC4)c4c(c23)CCC4)c1 | i | i | i | i
Cc1ccc(NC(=O)C(C)N(c2ccc(Cl)cc2)S(C)(=O)=O)c(C)c1 (stereo unspecified) | i | i | i | i
COc1ccc(NC(=O)Nc2cccc3c2O[C@H](CN(C)C)[C@@H](C)CN([C@H](C)CO)C3=O)cc1 | i | i | i | i
CC(C)NC(=O)N(C)C[C@H]1OCCCC[C@@H](C)Oc2ccc(NS(=O)(=O)c3ccccc3)cc2C(=O)N([C@@H](C)CO)C[C@H]1C | i | i | i | i
Cn1c(SCC(=O)Nc2ccnc3ccccc23)nnc1-c1ccncc1 | + | i | i | i
C[C@@H]1CCCCO[C@H](CN(C)Cc2ccncc2)[C@H](C)CN([C@H](C)CO)C(=O)c2cc(NS(=O)(=O)c3ccccc3)ccc2O1 | i | i | i | i
CC(C)(C)c1cc(C(=O)/C=C/c2ccc(C(=O)O)cc2)cc(C(C)(C)C)c1 | nt | i | i | i
C[C@H](CO)N1C[C@H](C)[C@H](CN(C)CC2CC2)Oc2c(NC(=O)c3nc4ccccc4s3)cccc2C1=O | i | i | i | i
C[C@H]1CN([C@@H](C)CO)C(=O)Cc2cc(NC(=O)C3CC3)ccc2O[C@@H]1CN(C)S(=O)(=O)c1cccs1 | i | i | i | i
Cc1noc(C)c1NC(=O)N(C)C[C@@H]1OCc2cn(nn2)CCCC(=O)N([C@@H](C)CO)C[C@H]1C | i | i | i | i
CC1(C)CC(=O)C2=C(C1)Nc1ccccc1N(C(=S)NCc1ccco1)C2c1cccnc1 (stereo unspecified) | i | i | i | i
COc1ccc(NC(=O)Nc2cccc3c2O[C@H](CN(C)S(=O)(=O)c2ccc(OC)cc2)[C@H](C)CN([C@@H](C)CO)C3=O)cc1 | i | i | i | i
CC(C)NC(=O)Nc1ccc2c(c1)C(=O)N([C@@H](C)CO)C[C@@H](C)[C@H](CN(C)C(=O)Nc1ccccc1)OCCCC[C@@H](C)O2 | i | i | i | i
C[C@@H]1CN([C@H](C)CO)C(=O)CCCn2nncc2CO[C@H]1CN(C)Cc1ccc(C(F)(F)F)cc1 | i | i | i | i
CC(Oc1cccc(NC(=O)c2ccc(Br)cc2)c1)C(=O)c1ccccc1 (stereo unspecified) | i | i | i | i
COCCOC(=O)N1C(=O)[C@@]2(c3cc(C#Cc4ccc(OC)cc4)ccc31)[C@H](c1ccccc1OCCO)N1[C@H](c3ccccc3)[C@H](c3ccccc3)OC(=O)[C@H]1[C@@H]2C(=O)N1CCc2cc(OC)c(OC)cc2C1 | nt | i | i | i
COc1ccc(S(=O)(=O)N(C)C[C@H]2Oc3ccc(NC(=O)Nc4cccc5ccccc45)cc3CC(=O)N([C@@H](C)CO)C[C@H]2C)cc1 | i | i | i | i
C[C@@H]1CN([C@@H](C)CO)C(=O)c2cccc(NS(C)(=O)=O)c2O[C@H]1CN(C)C(=O)Nc1ccccc1 | i | i | i | i
CCOC(=O)c1c(NC(=O)Cn2ccc([N+](=O)[O-])n2)sc(C)c1C | i | i | i | i
Cc1ccccc1Cn1cc(NC(=O)c2nc3ncccn3n2)cn1 | i | i | i | i
O=C1c2c(O)cc(O)cc2O[C@@H](c2ccc(O)cc2)[C@@H]1O | nt | i | i | i
C[C@H]1CCCCO[C@H](CN(C)C)[C@@H](C)CN([C@@H](C)CO)C(=O)c2cc(NS(C)(=O)=O)ccc2O1 | i | i | i | i
Cc1ccc(S(=O)(=O)N(C)C[C@@H]2Oc3ccc(NC(=O)Nc4cccc5ccccc45)cc3CC(=O)N([C@H](C)CO)C[C@@H]2C)cc1 | nt | i | i | i
Cc1ccc(SCCCCSc2nc(C)cc(=O)[nH]2)cc1 | i | i | i | i
COc1ccc(Cl)cc1N=C1NC(=O)CC(C(=O)Nc2ccccc2)S1 (stereo unspecified) | i | i | i | i
Cc1ccc(NC(=O)Cn2c(-c3nonc3N)nc3ccccc32)cc1Cl | i | i | i | i
COc1ccccc1C(=O)NCCCN1CCCC1=O | i | i | i | i
NCCCCCNC(=O)[C@H]1C[C@H]2C(=O)NCC(=O)N2[C@H]1c1cccc(OCCO)c1 | i | i | i | i
COc1ccc(S(=O)(=O)N(C)C[C@@H]2Oc3ccc(NC(=O)NC(C)C)cc3C(=O)N([C@@H](C)CO)C[C@H]2C)cc1 | i | i | i | i
Cc1noc(C)c1S(=O)(=O)N(C)C[C@H]1Oc2ccc(NC(=O)Nc3cccc4ccccc34)cc2CC(=O)N([C@H](C)CO)C[C@H]1C | i | i | i | i
C[C@@H]1CN([C@@H](C)CO)C(=O)Cc2cc(NC(=O)c3ccncc3)ccc2O[C@H]1CN(C)S(=O)(=O)c1ccccc1 | i | i | i | i
C[C@H](CO)N1C[C@H](C)[C@H](CN(C)C)Oc2ccc(NS(C)(=O)=O)cc2C1=O | i | i | i | i
C[C@@H]1CN([C@H](C)CO)C(=O)c2cc(NC(=O)c3ccncc3)ccc2O[C@@H](C)CCCCO[C@H]1CN(C)C(=O)Nc1ccc(C(F)(F)F)cc1 | nt | i | i | i

Whole records, quoted from the list:
Results for C[C@H]1CCCCO[C@H](CN(C)C)[C@@H](C)CN([C@@H](C)CO)C(=O)c2cc(NS(C)(=O)=O)ccc2O1 : ID4 SMM = i; c-Myc SMM = i; STAT3 binder = i; p53 mut binder = i
Results for COc1c(O)cc2oc(-c3ccc(O)cc3)cc(=O)c2c1O : ID4 SMM = nt; c-Myc SMM = i; STAT3 binder = i; p53 mut binder = i

Other structures
SMILES | ID4 SMM | c-Myc SMM | STAT3 binder | p53 mut binder
C=CCNC(=O)[C@H]1[C@@H]2C(=O)O[C@@H](c3ccccc3)[C@@H](c3ccccc3)N2[C@@H](c2ccc(O)cc2)[C@]12C(=O)N(C(=O)OCCOC)c1ccccc12 | nt | i | i | i
CC#CCOC(=O)C1=CCCN(C)C1 | i | + | + | i
C[C@H](CO)N1C[C@H](C)[C@H](CN(C)Cc2ccccc2)Oc2ncc(Br)cc2C1=O | i | i | i | i
C[C@H]1CN([C@@H](C)CO)C(=O)c2cccc(NC(=O)Nc3ccc(C(F)(F)F)cc3)c2O[C@H]1CN(C)C(=O)NC1CCCCC1 | i | + | i | i
C[C@@H]1CCCCO[C@H](CN(C)S(=O)(=O)c2cn(C)cn2)[C@H](C)CN([C@@H](C)CO)C(=O)c2cc(NS(=O)(=O)c3cn(C)cn3)ccc2O1 | i | i | i | i
C[C@H]1CCCCO[C@H](CN(C)Cc2ccccc2)[C@@H](C)CN([C@@H](C)CO)C(=O)c2cc(NS(=O)(=O)c3cn(C)cn3)ccc2O1 | nt | i | i | i
CC1(C(=O)c2ccccc2)C2c3c(ccc4ccccc34)OC(=O)C21C(=O)c1ccco1 (stereo unspecified) | i | i | i | i
CC(=O)N(CC(C)C(=O)O)c1c(I)cc(I)c(N)c1I (stereo unspecified) | i | i | i | i
COc1ccc(NC(=O)Nc2cccc3c2O[C@H](CN(C)S(=O)(=O)c2ccc(Cl)cc2)[C@H](C)CN([C@@H](C)CO)C3=O)cc1 | + | i | i | i
COc1cc(-c2coc3cc(O)cc(O)c3c2=O)c(OC)cc1O | nt | i | i | i
CS(=O)(=O)N(CC(=O)Nc1ccc(Oc2ccccc2)cc1)C1CCCCC1 | i | i | i | i
COc1ccc(S(=O)(=O)N(C)C[C@H]2Oc3ccc(NS(=O)(=O)c4cccs4)cc3CC(=O)N([C@H](C)CO)C[C@H]2C)cc1 | nt | i | i | i

Compounds listed so far containing a Cl atom, in the order listed:
SMILES | ID4 SMM | c-Myc SMM | STAT3 binder | p53 mut binder
Cc1ccc(NC(=O)C(C)N(c2ccc(Cl)cc2)S(C)(=O)=O)c(C)c1 (stereo unspecified) | i | i | i | i
COc1ccc(Cl)cc1N=C1NC(=O)CC(C(=O)Nc2ccccc2)S1 (stereo unspecified) | i | i | i | i
Cc1ccc(NC(=O)Cn2c(-c3nonc3N)nc3ccccc32)cc1Cl | i | i | i | i
COc1ccc(NC(=O)Nc2cccc3c2O[C@H](CN(C)S(=O)(=O)c2ccc(Cl)cc2)[C@H](C)CN([C@@H](C)CO)C3=O)cc1 | + | i | i | i

(cont.)
SMILES | ID4 SMM | c-Myc SMM | STAT3 binder | p53 mut binder
C[C@H](CO)N1C[C@H](C)[C@H](CN(C)C(=O)CCCN(C)C)OCCCC[C@H](C)Oc2ccc(NS(C)(=O)=O)cc2C1=O | i | i | i | i
Cc1nc2ccccc2nc1OCc1cccc([N+](=O)[O-])c1 | i | i | i | i
CSc1ccccc1NC(=O)CN(C)S(=O)(=O)c1ccc(F)cc1 | i | i | i | i
C[C@@H]1CN([C@H](C)CO)C(=O)c2cc(NC(=O)C3CC3)ccc2O[C@H]1CN(C)S(=O)(=O)c1cccs1 | i | i | i | i
COc1ccc(CN(C)C[C@@H]2Oc3c(NC(=O)NC4CCCCC4)cccc3C(=O)N([C@H](C)CO)C[C@@H]2C)cc1 | i | i | i | i
COC(=O)c1ccc(NC(=O)CN2C(=O)CN(c3ccc(Br)cc3)C2=O)cc1 | i | i | i | i
Cc1noc(C)c1NC(=O)Nc1ccc2c(c1)CC(=O)N([C@H](C)CO)C[C@@H](C)[C@@H](CN(C)S(=O)(=O)c1cn(C)cn1)O2 | i | i | i | i
C[C@@H]1CN([C@@H](C)CO)C(=O)c2cc(N(C)C)ccc2O[C@@H](C)CCCCO[C@@H]1CN(C)S(=O)(=O)c1ccccc1 | i | i | i | i
CC(C)NC(=O)N(C)C[C@@H]1Oc2ccc(NC(=O)C3CC3)cc2CC(=O)N([C@@H](C)CO)C[C@H]1C | i | i | i | i
[N-]=[N+]=Nc1ccccc1C[C@]1(C(=O)N2CCCCC2)N=C(c2ccc(OCCCO)cc2)O[C@H]1c1ccccc1 | i | i | i | i
C[C@H]1CN([C@@H](C)CO)C(=O)c2cc(NS(=O)(=O)c3cn(C)cn3)ccc2O[C@@H]1CN(C)Cc1ccc(Cl)c(Cl)c1 | nt | i | i | i
C[C@@H]1CN([C@H](C)CO)C(=O)c2cc(NC(=O)CCCN(C)C)ccc2O[C@H]1CN(C)Cc1ccncc1 | i | i | i | i
CNC[C@@H]1Oc2c(NC(=O)Nc3c(C)noc3C)cccc2C(=O)N([C@H](C)CO)C[C@@H]1C | i | i | i | i
CC(=O)NC(=S)Nc1ccc(S(=O)(=O)Nc2nc(C)cc(C)n2)cc1 | i | i | i | i
CC1(C)Cc2c(C#N)c(OCC(=O)c3ccc(Cl)cc3)nc(-c3ccco3)c2CO1 | i | i | i | i
CCCN(C)C[C@H]1OCCCC[C@@H](C)Oc2ccc(NC(=O)CCCN(C)C)cc2C(=O)N([C@@H](C)CO)C[C@H]1C | nt | i | i | i
C[C@@H]1CN([C@H](C)CO)C(=O)c2cccc(NS(=O)(=O)c3cccs3)c2O[C@@H]1CN(C)Cc1ccc2c(c1)OCO2 | i | i | i | i
CC(C)NC(=O)N(C)C[C@H]1OCCCC[C@@H](C)Oc2ccc(NC(=O)c3ccncc3)cc2C(=O)N([C@@H](C)CO)C[C@@H]1C | i | i | i | i
O=C(COc1ccccc1)Nc1scc2c1c(=O)oc1ccccc12 | i | i | i | i
OC(CCCN1CCN(c2ncc(F)cn2)CC1)c1ccc(F)cc1 (stereo unspecified) | i | i | i | i
COc1ccc(S(=O)(=O)N(C)C[C@@H]2Oc3ccc(NC(=O)C4CC4)cc3C(=O)N([C@H](C)CO)C[C@H]2C)cc1 | i | i | i | i
C[C@H]1CCCCO[C@@H](CN(C)C(=O)C2CCCCC2)[C@@H](C)CN([C@@H](C)CO)C(=O)c2cc(NS(=O)(=O)c3cccs3)ccc2O1 | i | i | i | i
CSCC1OC(n2cnc3c(=O)[nH]cnc32)C(O)C1O (stereo unspecified) | i | i | i | i
C[C@H]1CCCCO[C@H](CN(C)C)[C@@H](C)CN([C@@H](C)CO)C(=O)c2cc(NC(=O)Nc3cccc4ccccc34)ccc2O1 | i | i | i | i
Clc1ccc(-c2cn3c4ccccc4nc3n2CCN2CCOCC2)cc1 | i | i | i | i
O=C(Nc1ccc(Cl)cc1)NC(Cc1ccccc1)C(=O)O (stereo unspecified) | i | i | i | i
CNC[C@@H]1Oc2ccc(NC(=O)NC(C)C)cc2CC(=O)N([C@H](C)CO)C[C@H]1C | i | i | i | i
C[C@@H]1CN([C@@H](C)CO)C(=O)Cc2cc(NC(=O)CCCN(C)C)ccc2O[C@H]1CN(C)C(=O)Nc1ccccc1 | i | i | i | i
Cc1noc(C)c1S(=O)(=O)Nc1ccc2c(c1)C(=O)N([C@@H](C)CO)C[C@H](C)[C@@H](CN(C)C(=O)Nc1ccc(F)cc1)OCCCC[C@H](C)O2 | nt | i | i | i
